Screening results (PubChem)
TRPML1 agonist: agonists of human TRPML1 channel | Q9GZU1 | TRPML1-expressing cells, Ca2+ dye fluorescence, FDSS; host cell line not named in the record; reference of the full effect not given here | activation, % (no concentration beside the values) | 410,000 compounds, 0.12% hits | AID 624414; in the data active = activation above about 50%; inconclusive = about 30% to 50%; inactive = below about 30%; further: 0% is about no effect; the text of the record puts the active cut at 80%
Target sequence (Q9GZU1 whole entry, looked up): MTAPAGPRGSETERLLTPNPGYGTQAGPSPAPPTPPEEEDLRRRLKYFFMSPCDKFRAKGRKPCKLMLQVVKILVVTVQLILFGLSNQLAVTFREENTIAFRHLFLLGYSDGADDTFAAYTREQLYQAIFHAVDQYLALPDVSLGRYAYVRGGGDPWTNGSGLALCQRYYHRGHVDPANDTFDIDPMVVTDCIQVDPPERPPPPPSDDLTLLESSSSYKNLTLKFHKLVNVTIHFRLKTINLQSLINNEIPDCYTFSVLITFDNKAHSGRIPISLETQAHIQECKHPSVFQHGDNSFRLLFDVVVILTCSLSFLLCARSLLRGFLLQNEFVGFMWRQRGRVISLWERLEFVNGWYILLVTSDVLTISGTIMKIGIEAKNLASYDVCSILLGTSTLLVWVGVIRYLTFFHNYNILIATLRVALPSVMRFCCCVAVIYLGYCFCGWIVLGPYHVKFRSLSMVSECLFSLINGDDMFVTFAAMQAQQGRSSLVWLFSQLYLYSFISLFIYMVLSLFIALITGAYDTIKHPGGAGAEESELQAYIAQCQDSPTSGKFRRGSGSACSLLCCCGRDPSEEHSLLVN
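TRPML1-DL cells, Tet-induced overnight (~16 h, 37 degrees C), loaded 45-90 min at room temperature with Ca8 no-wash calcium dye plus quencher. FDSS fluorescence: 10 s baseline, compound pin-transfer, 110 s agonist read, then EC80 54-4 (4uM final) and 110 s antagonist read.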
gsp ag: gsp mutant agonism | gsp mutant cells, cAMP HTRF, 30 min; control for the full effect not named in the record | Potency, µM (top dose mostly 76.9 µM), without a hit: at the highest dose activation (cAMP increase), most hits filed as activators | 340,000 compounds, 0.13% hits | AID 624287; active = well fitted activation curve with a large enough effect; inconclusive = small, poorly fitted or top-dose-only effect, or another doubt; inactive = no such curve, though single readings can be large or run the other way; cell line not stated here;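 further: phosphodiesterase inhibitor Ro 20-1724 added with compounds to block cAMP breakdown; potency means the concentration at half of the fitted maximal effect; nearly all actives have a fitted effect of over 60% in size; about a fifth of the inactives were tested at one dose only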
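Cells in DMEM/10% FBS with G418 were pretreated with compounds in DMSO plus […] (300 uM stock) for 30 min at 37C. cAMP was measured by HTRF (cAMP-d2 plus anti-cAMP antibody-K) after 30 min at room temperature.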
TRPML1 inh: human mucolipin-1 channel inhibition | Q9GZU1 | TRPML1-inducible cells, Ca2+ dye fluorescence, FDSS; active compounds read low; inhibition of EC80 agonist-evoked calcium signal | activity change, negative = inhibition, % (no concentration beside the values) | 390,000 compounds, 0.02% hits; in the data active means activity change below about -50%; inconclusive means about -30% to -50%; inactive means above about -30%;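 further: stimulus is agonist 54-4 at its EC80 concentration; on the % scale 0 is the no-effect control and ±100 the full control effect; compound concentration not given in the record; the text of the record puts the active cut at -80%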
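Calcium fluorescence in TRPML1-DL cells induced overnight with Tet: a 110 s read after compound pin addition, then a 110 s antagonist read after challenge with 54-4 at 4 uM final (EC80).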
Menin MLL FP FL: menin-MLL binding inhibition, fluorescein peptide. Fluorescence polarization, fluorescein-MLL peptide displacement from menin. FP activity change, % at 61.4 µM. 290,000 tested, under 10 active; inconclusive = falling polarisation curve, or a change in total fluorescence; inactive = total fluorescence flat and polarisation flat or rising; no compound was filed as active; the % refers to the polarisation; negative = inhibition;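 further: % of control where 0% means no effect; inhibitors lower the polarisation; unlabelled MLL peptide was the positive control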
gsp antag: antagonists of gsp mutant (McCune-Albright syndrome); 340,000 compounds, 0.4% hits; Potency, µM (top dose mostly 76.9 µM), inactives show at the highest dose activity change, negative = inhibition, usual class: inhibitors; AID 624288; gsp-mutant cells, cAMP HTRF, 30 min; control for the full effect not named in the record; active = falling curve of any shape with a large fitted effect; inconclusive = falling curve, mostly with a smaller effect; inactive = flat or rising curve; cell line not stated here;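 further: intracellular cAMP measured with PDE inhibitor Ro 20-1724 present during compound exposure; potency means the concentration at half of the fitted maximal effect; on the % scale 0 is the no-effect control and ±100 the full control effect; nearly all actives have a fitted effect of over 65% in size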
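Measurement of cellular cAMP by homogeneous time-resolved fluorescence following a 30 min compound exposure at 37C. The PDE inhibitor […] was present throughout; the assay buffer was DPBS with 0.05% BSA and 0.005% Tween 20.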
ClpP mod: qHTS Assay for Activators of ClpP; ATP-dependent Clp protease proteolytic subunit (Bacillus subtilis (strain 168)), P80244; purified B. subtilis ClpP, FRET peptide cleavage, 20 min; Potency, µM (doses to about 57.5 µM), for inactives: at the top dose activity change, negative = active; 340,000 compounds, 1.9% hits; active = well fitted falling curve with a large enough effect; inconclusive = small, poorly fitted or top-dose-only effect; inactive = no such curve, though single readings can be large or run the other way; further: potency means the concentration at half of the fitted maximal effect; the source files actives as falling curves though it sought activators and does not explain the sign; nearly all actives have a fitted effect of over 65% in size; many hits overshoot -100%
Target sequence (P80244 whole entry, looked up): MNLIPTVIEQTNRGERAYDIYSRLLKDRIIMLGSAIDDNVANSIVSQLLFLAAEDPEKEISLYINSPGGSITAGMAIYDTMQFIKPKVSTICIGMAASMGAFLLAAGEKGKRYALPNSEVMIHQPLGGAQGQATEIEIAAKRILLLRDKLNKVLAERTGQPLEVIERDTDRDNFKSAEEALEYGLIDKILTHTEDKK
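ClpP 10 microg/mL final, pH 8 Tris/KCl buffer with BSA, glycerol, Tween-20; compound pinned in; FRET-FV substrate; RT 20 min; Ex320/Em430; ΔFRET vs ADEP 5.8 microM, DMSO, no enzyme.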
* = called active by the depositor; ? = inconclusive; / = no result given; & = joins results of further samples; [ ] = remark or other dose.

SMILES,TRPML1 agonist,gsp ag,TRPML1 inh,Menin MLL FP FL,gsp antag,ClpP mod
CCOc1ccc(NC(=O)c2csc3c2CCCC3)cc1,-0.6,-30%[inhibitor],-7,1.2,-12%,3.5%
Cc1c(NC(=O)CN2c3ccccc3CC2C)c(=O)n(-c2ccccc2)n1C (configuration not stated),-0.4,-12%[15.4 µM],12,-1.0,-3%,/
COC(=O)c1cn(NC(=O)c2ccccc2[N+](=O)[O-])c(=O)c2ccccc12,-0.5,-1%[15.4 µM],10,0.0,-6%,-1.1%
Cc1cc(NC(=O)c2ccc(N3C(=O)C4C5C=CC(C5)C4C3=O)cc2)no1 (configuration not stated),0.1,-17%,-8,-0.5,12%,/
CCCCSc1n[nH]c(=S)c2nc[nH]c12,3.2,?,21,/,8%,/
CCCCN1C(=O)NC(NC(=O)c2ccco2)(C(F)(F)F)C1=O (configuration not stated),-0.7,30%,-13,4.0,4%,-1.2%
CCN1CCN(S(=O)(=O)c2ccc(Cl)c(C(=O)N(C)Cc3cccc(Cl)c3Cl)c2)CC1,0.0,-5%[15.4 µM],13,/,3%,1.3%
COc1cc(C(=O)O)c2ccccc2n1,0.3,-1%,-3,-1.5,2%,/
O=C(NC1CCCCC1NC(=O)c1ccco1)c1ccco1 (configuration not stated),-0.7,-39%[inhibitor],4,1.2,-12%,0.6%
CC(C)NC(=S)N/N=C1\CCCCc2ccccc21,1.6,-22%,27,3.0,8%,-0.6%
O=c1[nH]c(CSc2ncnc3sccc23)nc2ccccc12,1.4,?,10,8.6,20%,-9.2%
CC[C@@H](C)[C@@H](C(=O)N1CCN(C(=O)OC(C)(C)C)CC1)n1cc(CCCN=C(NC(=O)OC(C)(C)C)NC(=O)OC(C)(C)C)nn1,-1.5,-6%,11,-3.3,-12%,1.2%
CCCCN(CCCC)S(=O)(=O)c1ccc2[nH]c(=O)[nH]c2c1,2.1,23%,10,-2.1,5%,-0.3%
COc1ccc(S(N)(=O)=O)cc1C(=O)NNC(=O)CN(C)S(=O)(=O)c1ccc(Cl)cc1,0.3,-9%,1,/,5%,3.0%
CCOC(=O)c1[nH]ncc1CN1CCCC(C(=O)c2ccc(OC)cc2C)C1 (configuration not stated),0.5,0%,2,-3.0,5%,-1.8%
O=C(Nc1csc(Cl)c1)c1ccccc1,1.4,?,1,/,1%,/
CCOC(=O)c1cn(CC#N)c2cc(F)c(F)cc2c1=O,0.0,-1%[15.4 µM],9,-6.6,/,/
CC1(C)OC(=O)N(CC(=O)Nc2ccccc2)C1(C)O (configuration not stated),2.2,?,13,-2.1,5%,-0.9%
CN(C(=O)CS(=O)(=O)c1cn(CC(=O)N2CCOCC2)c2ccccc12)c1ccccc1,0.3,18%,?,-7.0,10%,/
Cc1cccc(-n2c(C)cc(/C=N/NC(=O)c3cccc([N+](=O)[O-])c3C)c2C)c1,-0.5,-9%,9,2.9,5%,1.4%

Part of the list above, field by field:
CCOC(=O)c1[nH]ncc1CN1CCCC(C(=O)c2ccc(OC)cc2C)C1 (configuration not stated)
  TRPML1 agonist: 0.5
  gsp ag: 0%
  TRPML1 inh: 2
  Menin MLL FP FL: -3.0
  gsp antag: 5%
  ClpP mod: -1.8%

COc1ccc(S(N)(=O)=O)cc1C(=O)NNC(=O)CN(C)S(=O)(=O)c1ccc(Cl)cc1
  TRPML1 agonist: 0.3
  gsp ag: -9%
  TRPML1 inh: 1
  Menin MLL FP FL: /
  gsp antag: 5%
  ClpP mod: 3.0%

Part of the list above, showing only ClpP mod and Menin MLL FP FL.
| molecule | ClpP mod | Menin MLL FP FL |
| --- | --- | --- |
| CC[C@@H](C)[C@@H](C(=O)N1CCN(C(=O)OC(C)(C)C)CC1)n1cc(CCCN=C(NC(=O)OC(C)(C)C)NC(=O)OC(C)(C)C)nn1 | 1.2% | -3.3 |
| CCCCN(CCCC)S(=O)(=O)c1ccc2[nH]c(=O)[nH]c2c1 | -0.3% | -2.1 |
| COc1ccc(S(N)(=O)=O)cc1C(=O)NNC(=O)CN(C)S(=O)(=O)c1ccc(Cl)cc1 | 3.0% | / |

Next section
SMILES,TRPML1 agonist,gsp ag,TRPML1 inh,Menin MLL FP FL,gsp antag,ClpP mod
Cc1ccc(C(=O)NC(=S)Nc2cc(C(F)(F)F)ccc2Cl)cc1,-0.7,2%,-4,2.7,0%,-3.0%
Cc1ccc(SC[C@H](Cc2ccccc2)N2CC[C@@H](C)CCC2=O)cc1,2.6&0.5,1%,76,0.0,?,1.1%&3.8%
CCCN(CC(=O)Nc1ccccc1OC)C(=O)c1cc(S(=O)(=O)NCc2ccccc2)ccc1C,2.0,-16%,-5,-0.2,-17%,-1.1%
O=C(N/N=C/c1ccccc1OC(F)F)c1cc(-c2ccncc2)nc2ccccc12,-0.2,-16%,9,41[activator],18%,/
CCCN1CCc2c(sc3nc(SCC)n(-c4ccccc4)c(=O)c23)C1,1.4,?,16,15,-16%,/
COc1ccc(N=Cc2nc(-c3ccccc3)oc2OC(=O)c2ccccc2)cc1,-0.3,-18%,-1,2.4,4%,-4.6%
CC1CN(C(=O)N2CCC(C(=O)NCCCc3ccccc3)CC2)c2cc(Cl)ccc2O1 (configuration not stated),1.6,/,7,/,/,-1.7%
CCCC(=O)NC(c1ccc(C)cc1)c1ccc2cccnc2c1O (configuration not stated),2.0,-15%,28,-4.4,-3%,/
COc1ccc(CCNC(=O)C(=O)N/N=C/c2cccs2)cc1OC,-0.9,-15%[15.4 µM],-2,1.1,/,/
Nc1nc(SCC(=O)Nc2ccc(OCc3ccccc3)cc2)n[nH]1,-0.8,1%,31,0.1,5%,1.3%
Cc1oc(-c2ccc(Cl)cc2)nc1CSc1nc2ncccc2[nH]1,2.4,/,12,/,/,-1.6%
Cc1ccc2cc(C)c(N3CCC(C)CC3)nc2c1,-0.6,28%,-1,5.8,2%,/
Cc1ccc(-c2nn3c(C)nnc3c3ccccc23)cc1S(=O)(=O)NCC(C)O (configuration not stated),-0.7,/,7,/,/,-18%
O=C(O)CC(CC(=O)Nc1ccccc1C(=O)O)c1ccccc1 (configuration not stated),-0.1,13%,12,2.8,10%,-1.3%
O=C(CSc1n[nH]c(-c2ccccc2O)n1)N1CCCc2ccccc21,1.9,-19%,-15,3.6,-33%,-5.7%
COc1cccc(CNCCN2CCOCC2)c1OC,0.5,14%,5,5.2,7%,-14%
O=C(CCC(=O)N1CCN(S(=O)(=O)c2ccccc2)CC1)c1cccs1,-0.3,-44%,7,3.6,6%,-2.0%
CCN1CCN(C(=O)CN2C(=O)COc3ccc(S(=O)(=O)N4CCOCC4)cc32)CC1,-0.5,24%,-2,/,-5%,1.0%
COc1ccc(NC(=O)c2noc3c2CCCC3)cc1Cl,0.0,/,16,/,/,-15%
CC(C)CN(C(=O)CC1CCCC1)c1c(N)n(Cc2ccccc2)c(=O)[nH]c1=O,1.0,-10%[15.4 µM],-19,/,6%,/
CCOC(=O)c1[nH]c2ccccc2c1NC(=O)NC1CCCCC1,-0.7,-25%,-5,-3.0,7%,-13%
Cn1c(=O)c2ncn(CC(=O)Nc3cc(C(F)(F)F)ccc3N3CCOCC3)c2n(C)c1=O,1.2,10%,26,-2.1,7%,1.6%
Cc1cccc(N(C)C(=O)Cn2c(=O)oc3cc(S(=O)(=O)N4CCCCC4)ccc32)c1,-1.3,/,31,/,/,-1.1%
COc1ccc(CNC(=O)C2CCC(=O)N(CC3CCCCC3)C2)cc1 (configuration not stated),0.0,24%,-8,/,4%,-1.0%
Cc1ccc(-c2nnc(SCc3nc(N)nc(Nc4ccccc4C)n3)n2N)cc1,1.8,-23%,11,-3.0,-13%[15.4 µM],0.9%
COc1ccccc1OCC(=O)Nc1cccc(-c2nc3ccccc3o2)c1,1.3,-22%,-8,1.8,-2%,-6.1%
O=C(NC1CCCCCCC1)c1cc([N+](=O)[O-])ccc1Cl,-1.5,2%,22,2.6,-9%,1.8%
CC1Cc2ccccc2N1C(=O)CCNS(=O)(=O)c1ccc2c(c1)CCC(=O)N2 (configuration not stated),-0.5,6%,8,2.7,5%,-2.9%
O=C(OCC(=O)N1CCCC1)c1ccccc1C(=O)c1ccccc1,-0.5,-4%,0,/,7%,1.1%
CNC(=S)Nc1cccc(C(=O)O)c1,-0.5,-26%,18,-1.9,5%,2.1%
C=CCn1c(COc2ccc(Cl)cc2)nnc1SCC(=O)N/N=C/c1ccccc1,-0.1,?,3,0.3,-33%,-1.7%
C[C@H](NC(=O)OC(C)(C)C)c1nnc(SCC(=O)Nc2ccc(Br)cc2)o1,2.1,-4%,-9,2.4,?,-3.1%
Cc1c(-c2ccccc2)nc2ccccc2c1C(=O)Oc1ccc([N+](=O)[O-])cc1,1.9,-32%,16,-6.8,13%,-5.1%
O=C(CCC(=O)c1ccc(F)cc1)Nc1cccc(C(F)(F)F)c1,3.7,?,-4,3.2,0%,-0.9%
CC1(C)Oc2ccc3ccc(=O)oc3c2/C(=C/NC2CCCCC2)C1=O,1.8,?,25,5.5,0%,0.0%
Cc1cc2cc(CNC(=O)c3ccc4c(c3)OCO4)ccc2n1C,0.2,-35%[inhibitor],-3,?,4%,0.6%
Cc1cc2nc(-c3ccc(Cl)cc3)cc(C(F)(F)F)n2n1,-0.7,/,-8,/,/,0.5%
Cc1cc(C(=O)N2CCCC(N3CCN(c4cccc(C(F)(F)F)c4)CC3)C2)n[nH]1 (configuration not stated),-0.3,-1%,7,/,-2%,0.0%
COc1ccc2nc(N3CCOCC3)cc(C)c2c1,0.2,-23%,1,-0.6,8%,13µM*
CC(C)Oc1ccc(C(=O)Nc2ncn[nH]2)cc1,0.9,0%[15.4 µM],-13,-2.3,4%,-1.3%
CS(=O)(=O)N1CCC(C(=O)N2CCN(c3cccc(Cl)c3)CC2)CC1,3.6,?,-6,-3.0,-1%,/
C/C=C/c1ccc(OCC(O)CNCCc2ccc(OC)cc2)c(OC)c1 (configuration not stated),0.3,?,18,-0.7,-11%,-7.2%
